Assay outcomes as filed in PubChem.
PKD1 kinase inh: blocks activity of human protein kinase D1; Q15139; 200,000 tested, 0.056% active; inhibition, %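 (about 10 µM by stock and volumes)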; PKD1 kinase fluorescence polarization assay; AID 797;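 active = inhibition of 50% or more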;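 also: controls were vehicle for no effect and a reference inhibitor for full effect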
Target sequence (Q15139 whole entry, looked up): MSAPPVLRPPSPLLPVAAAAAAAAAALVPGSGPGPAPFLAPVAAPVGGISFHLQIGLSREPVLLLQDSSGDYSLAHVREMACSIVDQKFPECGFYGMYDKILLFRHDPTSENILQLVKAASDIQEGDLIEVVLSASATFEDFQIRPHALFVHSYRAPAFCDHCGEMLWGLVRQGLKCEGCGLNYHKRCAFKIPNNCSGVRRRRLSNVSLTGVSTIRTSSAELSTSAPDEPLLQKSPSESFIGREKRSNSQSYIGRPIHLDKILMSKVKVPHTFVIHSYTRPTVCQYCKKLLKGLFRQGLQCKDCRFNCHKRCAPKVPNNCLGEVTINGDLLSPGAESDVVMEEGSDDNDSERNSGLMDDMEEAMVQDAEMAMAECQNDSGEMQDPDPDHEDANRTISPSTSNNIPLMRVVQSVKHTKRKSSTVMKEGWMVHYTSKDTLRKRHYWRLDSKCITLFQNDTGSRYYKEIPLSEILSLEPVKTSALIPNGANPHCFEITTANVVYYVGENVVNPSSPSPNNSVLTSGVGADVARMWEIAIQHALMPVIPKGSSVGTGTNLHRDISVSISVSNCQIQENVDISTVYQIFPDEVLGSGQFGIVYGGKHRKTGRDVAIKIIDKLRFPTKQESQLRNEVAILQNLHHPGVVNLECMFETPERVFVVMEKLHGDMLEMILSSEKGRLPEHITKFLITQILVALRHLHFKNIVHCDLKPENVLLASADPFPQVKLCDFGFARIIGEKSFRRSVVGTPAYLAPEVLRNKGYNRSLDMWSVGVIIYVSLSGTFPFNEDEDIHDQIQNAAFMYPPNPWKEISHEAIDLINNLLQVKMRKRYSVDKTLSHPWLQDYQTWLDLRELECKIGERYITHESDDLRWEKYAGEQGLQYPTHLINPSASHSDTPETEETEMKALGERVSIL
GALR2 ag: GALR2 (human) receptor agonism; GALR2-expressing cells, agonist activation read-out; activation, %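 (tested at 5 µM)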; 140,000 tested, 0.48% active;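 active = above mean plus 3 SD of all compounds, about 5% in these data, not always enough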;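 also: 0% = vehicle buffer wells and 100% = reference agonist at full effect; tested in CHO reporter cells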
Insulin prom inh: TRM-6 insulin promoter activity inhibition. TRM-6 cells (human fetal islet line), insulin promoter-eGFP reporter, imaging; reporter expression induced with tamoxifen. inhibition, % at 2 µM. 130,000 tested, 0.9% active. AID 1273;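 active = inhibition above the mean plus 3 SD, with well images judged a real hit on visual review, cut at about 60% in these data, passing the limit was not always enough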
RGS16-Gao: modulates binding between human RGS16 and Galphao | 220,000 tested, 0.38% active | O15492+P09471 | bead-based flow cytometry RGS16-Galphao binding, fluorescence; actives lie on both sides | binding response (% of control), % at 10 µM | AID 1441;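 active = below 25% or above 175%, edge rows of some plates excepted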;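 also: Galphao activated by GDP with aluminum fluoride before binding; 100% = wells without compound and 0% = beads without RGS; some results beyond the cut were filed as inactive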
HSV replic up: increases HSV replication in cells. HSV replication augmentation in cells, fold increase. maximum fold increase. 220,000 tested, 0.005% active;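 active = peak rise of 1.5-fold or more in the series; tested in PC3 cells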;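 also: first round at 10 µM; read as green reporter fluorescence; hits show the peak of a series up to 25 µM; 1 = signal of infected wells without compound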
Insulin prom inh cell count: second read-out of Insulin prom inh, no call of its own (marks repeat the call); normalized cell count, %; measured here: cell count, toxicity; reference of the scale not given here;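 cells exposed to compound for 48 h; stained nuclei by imaging scaled within each plate; lower means fewer cells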
HSV replic up primary fold: recorded beside HSV replic up, whose call it bears; fold increase; compound at 10 µM; measured here: primary screen fold increase 10 uM; tested in PC3 cells;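 GFP signal in the first replicate; 1 = infected wells without compound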
* hit, by the source's call; i = inactive; / = not tested or not shown.

SMILES	PKD1 kinase inh	GALR2 ag	Insulin prom inh	Insulin prom inh cell count	RGS16-Gao	HSV replic up	HSV replic up primary fold
COC(=O)c1cc(CSc2nnc(NC3CCCCC3)s2)oc1C	-17	-0.2	18	146	115	i	0.9
CC(C)(C)C(=O)Nc1nnc(COc2ccc(Cl)cc2)s1	/	/	/	/	95	i	0.98
Cc1ccc(C2NC(=O)NC(O)(C(F)(F)F)C2C(=O)c2cccs2)o1 (stereo unspecified)	-2	-1.3	29	134	134	i	0.91
CCOc1ccc(S(=O)(=O)NCCC(=O)OCC(=O)c2ccc[nH]2)cc1	6	/	/	/	93	i	1
CC(C(=O)Nc1ccccc1C(=O)O)n1c(C(F)(F)F)nc2ccccc21 (stereo unspecified)	-5	/	/	/	93	i	0.94
Cc1cc(O)c(C(C)C)cc1NC(=O)c1ccccc1Cl	-13	-0.5	-28	158	101	i	1
CC(=O)Nc1ccc(OC(=O)C(CCS(C)(=O)=O)N2C(=O)c3ccccc3C2=O)cc1 (stereo unspecified)	-5	-1.6	-361	41	96	i	0.93
COc1ccc(/C=N/n2c(=O)[nH]c3c([nH]c4ccc(F)cc43)c2=O)cc1CN1CCCCC1	/	/	/	/	108	i	0.91
CC1(C)C(c2cccs2)=[N+]([O-])C2(CCCCC/C2=N\O)N1O (stereo unspecified)	5	-4.6	2	125	101	i	0.82
COc1ccc(NC(=O)NNC(=O)c2ccccc2-n2cccc2)cc1OC	-5	/	/	/	102	i	1.2
O=C(COC(=O)c1ccc2ccccc2c1)NCCCc1ccccc1	-1	-0.1	/	/	102	i	0.89
CCOC(=O)CSc1nc2cc(OC)ccc2cc1C#N	1	-1.4	94*	198*	96	i	0.89
O=C(N/N=C/c1ccc(O)cc1)c1cc(-c2ccc3c(c2)OCO3)n[nH]1	5	0.0	/	/	106	i	0.88
CC(C)N(c1nnc(N)s1)C(C)C	0	-1.4	-52	41	94	i	0.95
Cc1cc(C)c(N=C2CCCN2Cc2ccccc2)c(C#N)c1	-8	-1.8	-5	79	103	i	1.1
O=C(c1ccccc1Cl)N1CCC(O)(c2cccnc2)CC1	1	/	/	/	110	i	0.86
C=C(C)C(=O)Nc1cccc(C2=NOC3(C2)C[C@@H](C(N)=O)N(C(=O)C(=C)C)C3)c1 (stereo partly specified)	/	/	/	/	101	i	0.89
CC(=O)Nc1ccc(NC(=O)CCC(=O)OCC(=O)c2cccc([N+](=O)[O-])c2)cc1	3	/	/	/	103	i	1.1
CC1CN(C(=O)c2ccc(CNS(=O)(=O)c3cccc(C(F)(F)F)c3)cc2)CC(C)O1 (stereo unspecified)	-14	-1.3	33	67	102	i	1.1
CC(=O)c1ccc(NC(=S)NNC(=O)NC2CCCCC2)cc1	7	/	/	/	101	i	0.91

Complete entries as entered above. Values in the order: PKD1 kinase inh	GALR2 ag	Insulin prom inh	Insulin prom inh cell count	RGS16-Gao	HSV replic up	HSV replic up primary fold
C=C(C)C(=O)Nc1cccc(C2=NOC3(C2)C[C@@H](C(N)=O)N(C(=O)C(=C)C)C3)c1 (stereo partly specified) as listed: /	/	/	/	101	i	0.89
CC1(C)C(c2cccs2)=[N+]([O-])C2(CCCCC/C2=N\O)N1O (stereo unspecified) as listed: 5	-4.6	2	125	101	i	0.82
CC(C)N(c1nnc(N)s1)C(C)C as listed: 0	-1.4	-52	41	94	i	0.95

Carrying on:
SMILES	PKD1 kinase inh	GALR2 ag	Insulin prom inh	Insulin prom inh cell count	RGS16-Gao	HSV replic up	HSV replic up primary fold
O=C(OCCN1CCOCC1)c1ccc(OCCN2CCOCC2)cc1	-5	-0.8	-2	118	102	i	1.1
CC(C)(C)C(=O)COC(=O)c1cc(-c2cccnc2)nc2ccccc12	-3	/	/	/	117	i	0.98
O=C1c2ccccc2C(=O)C1c1ccc(O)cc1	-3	/	-86	125	99	i	0.95
COc1ccc(NC(=O)C2CCN(C(=O)Cc3ccccc3)CC2)cc1OC	-2	/	14	149	120	i	0.84
C/C(=N\NC(=O)CN1CCN(Cc2ccccc2)CC1)c1ccncc1	/	/	/	/	99	i	1.2
Cc1ccc(-n2nnnc2SCC(=O)NC2CCCc3ccccc32)c(C)c1 (stereo unspecified)	2	-1.5	-31	166	104	i	0.94
Fc1ccc(-n2c(Cc3ccccc3)nnc2SCc2nc(-c3cccs3)no2)cc1	-6	-1.5	-35	98	93	i	0.9
Cn1/c(=N\NC(=O)c2ccccc2Cl)sc2ccccc21	4	/	-20	88	104	i	1.1
C=CCn1c(C(CCCC)CC(C)O)n[nH]c1=S (stereo unspecified)	-12	0.2	31	81	-9.0*	i	1.1
CCN(CC)CCNC(=O)COc1ccc(Cl)cc1Cl	-12	-2.5	-49	34	101	/	/
COCCNC(=S)N1CCN(S(C)(=O)=O)CC1	0	/	/	/	112	i	0.97
Cc1ccccc1-c1nc(CN2CCC(C(=O)NCCCN3CCCC3)CC2)c(C)o1	-7	-1.4	-50	60	100	i	0.75
Cn1c(=O)c2cc(S(=O)(=O)NCCC(=O)NCc3ccccc3Cl)ccc2n(C)c1=O	1	-2.3	-127	182	100	i	0.9
O=C(/C=C/c1c(Cl)nc2ccccn12)N1CCN(c2ccc(F)cc2)CC1	-2	/	/	/	100	i	0.81
Cc1ccc(NC(=O)/C(C#N)=C/c2ccccc2C(F)(F)F)cc1	-5	-1.7	-315	55	98	/	/
CCOc1ccc(CCNS(=O)(=O)c2c(C)n[nH]c2C)cc1OCC	-3	-2.5	/	/	99	i	0.91
CCOc1ccccc1NC(=O)CSc1nc(N)c(C#N)cc1C#N	3	0.1	/	/	100	i	0.93
O=S(=O)(c1ccccc1)N1CCC(O)(CSc2ccc(Cl)cc2)CC1	1	-1.5	-57	109	102	/	/
OC(CNCc1ccccc1)(c1ccc(F)cc1)c1ccc(F)cc1	-7	-0.6	/	/	101	i	0.96
O=C(NNC(=O)C1CC1c1ccccc1)Nc1ccccc1 (stereo unspecified)	7	-1.0	0	122	107	i	0.89
COCCNC(=O)/C(C#N)=C1\N=C(N)c2ccccc21	-8	-1.6	24	139	51	i	1.1
CN=C1SC(CC(=O)Nc2sc3c(c2C#N)CCCC3)C(=O)N1C (stereo unspecified)	-11	-1.5	-18	113	89	i	0.87
Cc1ccc2cc(-c3noc(C4CCCO4)n3)c(=O)[nH]c2c1 (stereo unspecified)	-1	-3.5	/	/	86	i	0.96
Cc1ccc(S(=O)(=O)NCC[C@@]2(C)C3CCC2(C)C(=O)C3)cc1 (stereo partly specified)	/	/	/	/	99	i	1.1
CCN1C(=O)C(Cc2nc3ccccc3c(=O)n2C)c2ccccc21 (stereo unspecified)	4	-1.9	15	124	93	i	0.84
CC(=O)c1ccc(-c2cc([C@H]3[C@H]4C=CC[C@@H](C)[C@@H]4C(=O)N3Cc3ccccc3)ccc2F)cc1	/	/	/	/	100	i	0.75
O=c1n(Cc2ccccc2F)c2ccccc2n1Cc1ccccc1F	-5	-2.1	-7	168	99	i	0.9
O=S(=O)(c1ccccc1)n1cc(-c2ccccn2)c(N2CCOCC2)n1	11	/	/	/	98	i	0.89
Cc1ccc(Cl)cc1N1CCN(S(=O)(=O)c2cccc(S(=O)(=O)N3CCCC3)c2)CC1	5	-1.4	-23	57	98	i	1.1
Cc1ccc(NC(=O)c2ccc(OC(=O)C(C)Oc3ccc(Cl)cc3C)cc2)cc1 (stereo unspecified)	6	-2.3	32	54	100	i	0.91
COCC1CCCN(Cc2cn(-c3ccccc3)nc2-c2ccc3c(c2)OCO3)C1 (stereo unspecified)	-3	/	/	/	113	i	0.89
COc1cccc(C(=O)Oc2cc(C)[nH]c(=O)c2[N+](=O)[O-])c1	0	/	15	69	107	/	/
COc1ccc(CCN2C(=O)CC(C(C)c3ccccc3)C2=O)cc1OC (stereo unspecified)	-2	/	-92	77	117	i	1
CCSC1=C(C#N)C(=O)n2c1cc1c2CCCC1	-2	-2.1	/	/	99	i	1.1
COc1cc(/C=C2\C(=O)N(c3ccc(S(N)(=O)=O)cc3)N=C2C)ccc1OC(=O)c1ccco1	-3	/	-21	147	93	i	0.97
COC(=O)CSc1ccc(S(=O)(=O)N2CCC(C)CC2)cc1[N+](=O)[O-]	0	-2.3	36	96	108	i	0.93
O=C1c2cccc3cccc(c23)C(=O)N1CCN1CCN(C(=S)Nc2ccc(F)cc2)CC1	-7	1.1	-4	142	100	i	0.92
Cc1ccc(-c2c(C(=O)N(C)Cc3ccccc3)oc(=O)c3ccccc23)cc1	-13	0.2	-15	113	68	i	0.99
Cc1sc2ncn(CC(=O)NCc3ccco3)c(=O)c2c1-c1ccc(F)cc1	-8	/	/	/	98	i	0.9
COC(=O)c1[nH]c2ccc(F)cc2c1NC(=O)CCN1CCN(C(=O)c2ccco2)CC1	-6	0.1	/	/	96	i	1

Molecules from the list above containing a thiophene ring, fused or not (5):
SMILES	PKD1 kinase inh	GALR2 ag	Insulin prom inh	Insulin prom inh cell count	RGS16-Gao	HSV replic up	HSV replic up primary fold
Cc1ccc(C2NC(=O)NC(O)(C(F)(F)F)C2C(=O)c2cccs2)o1 (stereo unspecified)	-2	-1.3	29	134	134	i	0.91
CC1(C)C(c2cccs2)=[N+]([O-])C2(CCCCC/C2=N\O)N1O (stereo unspecified)	5	-4.6	2	125	101	i	0.82
Fc1ccc(-n2c(Cc3ccccc3)nnc2SCc2nc(-c3cccs3)no2)cc1	-6	-1.5	-35	98	93	i	0.9
CN=C1SC(CC(=O)Nc2sc3c(c2C#N)CCCC3)C(=O)N1C (stereo unspecified)	-11	-1.5	-18	113	89	i	0.87
Cc1sc2ncn(CC(=O)NCc3ccco3)c(=O)c2c1-c1ccc(F)cc1	-8	/	/	/	98	i	0.9

Other results
SMILES	PKD1 kinase inh	GALR2 ag	Insulin prom inh	Insulin prom inh cell count	RGS16-Gao	HSV replic up	HSV replic up primary fold
CCC(=O)N(C)CCc1cc2c(c(OC)c1/C=N/NC(=O)c1ccc(Br)cc1)OCO2	-13	-0.8	-43	98	101	i	1
CCCN1CNC(=S)N(c2ccccc2OC)C1	9	-1.1	30	108	47	i	0.91
CC1(C(=O)Nc2cccc3ccccc23)CC1(Br)Br (stereo unspecified)	/	/	/	/	101	i	0.75
O=C(COC(=O)CCc1ccc(S(=O)(=O)N2CCOCC2)cc1)NC1CCCCCC1	-1	-2.6	-14	126	83	i	0.98
CN(C)CCOCCOc1ccccc1-c1ccccc1	1	-1.4	-10	136	107	i	1
C/C(CC(=O)Nc1ccc(C)c(Cl)c1)=N\NC(=O)c1ccco1	-10	/	/	/	90	i	0.96
O=[N+]([O-])c1cccc(-c2ccc(/C=N/NC(=S)Nc3cccc(F)c3)o2)c1	/	/	/	/	100	i	0.97
O=C(NNC(=S)NC1CCCCC1)c1cccc(S(=O)(=O)Nc2ccccc2Cl)c1	-4	0.2	43	112	106	i	1
CC(C)(C)c1ccc(C(=O)Nc2ncn[nH]2)cc1	-4	/	/	/	102	i	0.98
CC(C)CC(c1nnnn1CC1CCCO1)N1CCN(Cc2ccc3c(c2)OCO3)CC1 (stereo unspecified)	-2	-0.2	-32	116	102	i	0.98

Structures listed above that bear a hit mark in RGS16-Gao:
molecule | PKD1 kinase inh | GALR2 ag | RGS16-Gao | HSV replic up | HSV replic up primary fold
C=CCn1c(C(CCCC)CC(C)O)n[nH]c1=S (stereo unspecified) | -12 | 0.2 | -9.0* | i | 1.1

Next part
SMILES	PKD1 kinase inh	GALR2 ag	Insulin prom inh	Insulin prom inh cell count	RGS16-Gao	HSV replic up	HSV replic up primary fold
C=CCn1c(N)cc(=O)nc1SCC(=O)N1CCN(c2ccc(F)cc2)CC1	-9	-2.0	0	138	100	i	1
NC(=O)COC(=O)c1c2c(nc3ccccc13)CCCCC2	5	/	/	/	106	i	0.84
Cc1cccc(OCCCn2c(CO)nc3ccccc32)c1	/	/	/	/	99	i	1
COc1ccc([N+](=O)[O-])cc1NC(=O)c1ccc(-n2nc(C)cc2C)cc1	1	/	13	146	98	i	0.93
COc1ccc(Oc2nc(-c3ccccn3)nc3ccccc23)cc1	/	/	/	/	100	i	0.94
Cc1[nH]c(=O)c(C#N)cc1-c1ccccc1	6	-1.9	-54	108	112	i	0.99
Cc1cc(C(F)F)n2ncc(C(=O)NCc3ccc(F)cc3)c2n1	/	/	/	/	99	i	0.81
Cc1ccc(-c2nn3c(C)nnc3s2)cc1NC(=O)COc1ccc(Cl)cc1	-2	-2.2	/	/	98	i	1.4
O=C(O)Cn1c(CCS(=O)(=O)c2ccc(Br)cc2)nc2ccccc21	3	/	-9	129	95	i	1.1
